RecA splice inh – blocks M. tuberculosis RecA intein splicing | cell-free RecA intein splicing, fluorescence | inhibition, %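 (about 9 µM by stock and volumes)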 | P9WHJ3 | 290,000 compounds, 0.75% hits; in the data active means inhibition above about 30%;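 further: 0% = vehicle wells and 100% = reference inhibitor control wells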
Target sequence (P9WHJ3 whole entry, looked up, canonical isoform): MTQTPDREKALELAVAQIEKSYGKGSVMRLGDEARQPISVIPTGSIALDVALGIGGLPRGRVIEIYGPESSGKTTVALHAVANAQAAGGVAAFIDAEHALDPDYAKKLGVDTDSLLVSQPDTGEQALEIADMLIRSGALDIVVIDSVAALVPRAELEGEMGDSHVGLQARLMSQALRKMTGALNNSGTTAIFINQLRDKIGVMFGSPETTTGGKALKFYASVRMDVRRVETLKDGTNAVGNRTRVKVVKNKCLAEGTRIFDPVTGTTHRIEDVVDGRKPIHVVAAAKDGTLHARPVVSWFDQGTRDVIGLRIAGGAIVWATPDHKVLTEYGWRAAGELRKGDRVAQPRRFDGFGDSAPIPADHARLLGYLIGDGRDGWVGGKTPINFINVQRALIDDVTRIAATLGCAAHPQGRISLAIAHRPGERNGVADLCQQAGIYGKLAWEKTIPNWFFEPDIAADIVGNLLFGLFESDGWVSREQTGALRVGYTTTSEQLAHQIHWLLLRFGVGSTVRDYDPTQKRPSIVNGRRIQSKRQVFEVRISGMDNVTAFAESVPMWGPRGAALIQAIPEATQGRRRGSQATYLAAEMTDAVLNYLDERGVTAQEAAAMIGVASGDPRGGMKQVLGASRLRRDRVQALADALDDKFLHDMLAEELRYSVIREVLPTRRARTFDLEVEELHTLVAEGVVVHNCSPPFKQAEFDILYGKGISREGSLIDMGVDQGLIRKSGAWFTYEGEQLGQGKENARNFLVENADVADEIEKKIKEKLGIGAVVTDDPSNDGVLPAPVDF
* hit, by the source's call. The list is partial; count on the stated rates, not on these rows.

The first seven records (preview)
1. Cc1ccc(CCNCc2c(C(=O)O)c(C)n(-c3ccccc3)c2C)cc1
  RecA splice inh = 0.7
2. COc1ccccc1NC(=O)NC1(C)CCS(=O)(=O)C1 (stereo not given)
  RecA splice inh = 0.1
3. COCCC(=O)N1CCC(Oc2ccc(C(=O)N3C[C@@H](C)O[C@@H](C)C3)cc2)CC1
  RecA splice inh = -2.2
4. O=C(O)c1ccccc1C(=O)N1CCN(Cc2ccc3c(c2)OCO3)CC1
  RecA splice inh = -1.3
5. Cc1cc2oc(=O)cc(CN3CCN(Cc4ccccc4)CC3)c2cc1C
  RecA splice inh = -0.8
6. CCOc1ccccc1NC(=S)NC(=O)c1ccco1
  RecA splice inh = -2.8
7. CN(C(=O)c1cccc(OC2CCN(S(=O)(=O)N(C)C)CC2)c1)C1CCOC1 (stereo not given)
  RecA splice inh = 3.4

The listing, from the start:
1. Cc1ccc(CCNCc2c(C(=O)O)c(C)n(-c3ccccc3)c2C)cc1
  RecA splice inh = 0.7
2. COc1ccccc1NC(=O)NC1(C)CCS(=O)(=O)C1 (stereo not given)
  RecA splice inh = 0.1
3. COCCC(=O)N1CCC(Oc2ccc(C(=O)N3C[C@@H](C)O[C@@H](C)C3)cc2)CC1
  RecA splice inh = -2.2
4. O=C(O)c1ccccc1C(=O)N1CCN(Cc2ccc3c(c2)OCO3)CC1
  RecA splice inh = -1.3
5. Cc1cc2oc(=O)cc(CN3CCN(Cc4ccccc4)CC3)c2cc1C
  RecA splice inh = -0.8
6. CCOc1ccccc1NC(=S)NC(=O)c1ccco1
  RecA splice inh = -2.8
7. CN(C(=O)c1cccc(OC2CCN(S(=O)(=O)N(C)C)CC2)c1)C1CCOC1 (stereo not given)
  RecA splice inh = 3.4
8. Cn1ccnc1C(=O)Cc1ccc([N+](=O)[O-])cc1
  RecA splice inh = -1.0
9. COC(=O)N1C(=O)[C@](Cc2ccccc2)(c2ccccc2)N1C(=O)OC
  RecA splice inh = 2.4
10. CCCC(C(=O)NC1CCCC1)N(C(=O)Cn1nnc(-c2ccc(C)o2)n1)c1cccc(O)c1 (stereo not given)
  RecA splice inh = -0.9
11. CC1(C)Cc2c(cnn2-c2ccc(F)cc2)C(NC(=O)CCc2ccncc2)C1 (stereo not given)
  RecA splice inh = 0.9
12. COc1ccc(C)cc1N(CC(=O)NC1CCCC1)C(=O)Cn1nnc(-c2ccc(C)o2)n1
  RecA splice inh = 0.1
13. NC(=O)c1nsc(C(=O)N(Cc2ccccc2Cl)C(C(=O)NCC2CCCO2)c2ccc(O)cc2)c1N (stereo not given)
  RecA splice inh = -0.8
14. COc1ccc(F)cc1S(=O)(=O)N1CCC2(CC1)OCCN2S(=O)(=O)c1ccccc1
  RecA splice inh = 6.6
15. CC(C)C[C@@H](NC(=O)C1CCC(CNC(=O)[C@H](Cc2ccccc2)NC(=O)OC(C)(C)C)CC1)C(=O)O (stereo not given in full)
  RecA splice inh = 0.8

16. CCn1cc(/C=C(\NC(=O)c2ccc(C)cc2)C(=O)NCCCN2CCOCC2)c2ccccc21
  RecA splice inh = 1.9
17. O=C(NCc1ccncc1)C1CCN(S(=O)(=O)c2cccc(C(F)(F)F)c2)CC1
  RecA splice inh = 0.4
18. CNC(=O)c1cc(S(=O)(=O)N2CC(C)OC(C)C2)ccc1N1CCCCC1 (stereo not given)
  RecA splice inh = -1.6
19. Cc1nc2ccc(C(=O)OCc3nnc(-c4ccccc4)o3)cc2nc1C
  RecA splice inh = 1.4
20. CC1CCCCN1Cc1c(O)ccc2c(=O)c(-c3ccc(Br)cc3)coc12 (stereo not given)
  RecA splice inh = -1.9
21. O=C(CC1S/C(=N/N=C2CCCCCC2)NC1=O)Nc1ccccc1F (stereo not given)
  RecA splice inh = -2.5
22. Cc1ccc(-c2nnn(CC(=O)N(CC(=O)NC3CCCCC3)c3cccc(F)c3)n2)o1
  RecA splice inh = -0.6
23. CCC(=O)Nc1ccc(NC(=O)CSc2nnnn2Cc2ccccc2)cc1C
  RecA splice inh = -2.1
24. Cc1coc(C)c1C(=O)Nc1ccc2ccccc2c1
  RecA splice inh = -1.2
25. Cc1ccc(-n2c(/C=C/c3ccccn3)nc3ccccc3c2=O)cc1
  RecA splice inh = 1.2
26. CSc1ccc(/C=N/n2c(C)nc3ccccc3c2=O)cc1
  RecA splice inh = -0.2
27. CC(C)(C)OC(=O)COc1ccc(/C=N/NC(=O)CN2CCCCC2)cc1
  RecA splice inh = -1.9
28. O=C(c1nn2c(C(F)(F)F)cc(-c3ccccc3)nc2c1Cl)N1CCN2CCCC2C1 (stereo not given)
  RecA splice inh = 2.0
29. COc1cc(C(=O)NC(C)Cc2ccccn2)ccc1OC1CCN(C(C)=O)CC1 (stereo not given)
  RecA splice inh = 1.5
30. Cc1ccc(S(=O)(=O)N(CC(=O)c2ccccc2)C(=O)N2CCN(C)CC2)cc1
  RecA splice inh = -3.5

Some of the entries above, reformatted.
no.	Molecule	RecA splice inh
5	Cc1cc2oc(=O)cc(CN3CCN(Cc4ccccc4)CC3)c2cc1C	-0.8
6	CCOc1ccccc1NC(=S)NC(=O)c1ccco1	-2.8

(further entries)
31. O=C(CCN1C(=O)c2ccccc2S1(=O)=O)NCc1ccc(F)cc1
  RecA splice inh = 2.6
32. Cc1cc(C(=O)NNC(=S)NCc2ccccc2)no1
  RecA splice inh = -3.5
33. Cc1ccccc1NC(=O)CSc1nc2ccccc2c(=O)n1CC1CCCO1 (stereo not given)
  RecA splice inh = 0.1
34. CCOCc1cc(CN2CCC(n3nccc3NC(=O)C3CC3)CC2)ccc1OC
  RecA splice inh = -0.2
35. CC(=O)c1cccc(S(=O)(=O)N2CCCC(c3nc4c(nnn4Cc4ccccc4Cl)c(=O)[nH]3)C2)c1 (stereo not given)
  RecA splice inh = -1.4
36. CN(C)c1ccc(C(C(=O)NCc2ccccc2)N(Cc2cccnc2)C(=O)c2snc(C(N)=O)c2N)cc1 (stereo not given)
  RecA splice inh = 1.1
37. O=C(CSc1nnc(CNc2ccc(F)cc2)n1CC1CCCO1)N1CCOCC1 (stereo not given)
  RecA splice inh = -0.9
38. COc1cccc(CC(NC(C)=O)C(=O)NC2CCN(C(=O)c3ccc(Cl)cc3)CC2)c1 (stereo not given)
  RecA splice inh = 1.0
39. COc1ccc(S(=O)(=O)n2c(C)nc3ccccc32)cc1C
  RecA splice inh = -2.5
40. Cc1cccn2c(=O)nc(SCC(=O)N3N=C(c4cccs4)CC3c3ccc(F)cc3)nc12 (stereo not given)
  RecA splice inh = 10
41. CCOc1ccc(CN2CCNC(=O)C2CC(=O)NCCc2nc(C)c3c(n2)CCC3)cc1 (stereo not given)
  RecA splice inh = 4.6
42. COc1ccc(/C=C(\C#N)c2nc3ccccc3[nH]2)cc1O
  RecA splice inh = -0.7
43. CC(=O)c1c(O)c(C)c(O)c2c1OC1=CC(=O)C(C(C)=O)C(=O)[C@@]12C (stereo not given in full)
  RecA splice inh = -2.7
44. Cn1c2ccccc2c(=O)c2cc(C#CC3(O)CCCCC3)ccc21
  RecA splice inh = -107
45. Cc1ccccc1CNCc1ccc2c(c1)OCO2
  RecA splice inh = -0.8

46. COCC1CCN(C(=O)C2CCC(=O)N(Cc3cccc(C(F)(F)F)c3)C2)CC1 (stereo not given)
  RecA splice inh = -1.6
47. O=C(NCC(=O)N1CCN(c2ccccc2F)CC1)c1ccco1
  RecA splice inh = 0.4
48. CCCn1c2ccc(C)cc2c2nnc(SCCN3CCCCC3)nc21
  RecA splice inh = 0.4
49. Cc1oncc1C(=O)Nc1ccc2ccccc2c1
  RecA splice inh = -2.7
50. CC(=O)NC(Cc1ccccc1)C(=O)NC1CCN(C(=O)NCc2ccccc2)CC1 (stereo not given)
  RecA splice inh = 0.6
51. CC(C)n1cc(/C=C/c2cc[n+](C)cc2)c2ccccc21
  RecA splice inh = -0.8
52. CCn1cc(Cl)c(C(=O)Nc2c(C)nn(Cc3c(F)c(F)c(F)c(F)c3F)c2C)n1
  RecA splice inh = 5.6
53. CCc1ccc2[nH]c3nc(SCC(=O)NCC4CCCO4)nnc3c2c1 (stereo not given)
  RecA splice inh = 0.3
54. COc1ccc(C(=O)Nc2nnc(-c3ccc(F)cc3)s2)c(OC)c1
  RecA splice inh = 0.3
55. COc1cc(C(=O)N/C(=C\c2cn(C)c3ccccc23)C(=O)N2CCN(C)CC2)cc(OC)c1OC
  RecA splice inh = 0.1
56. COc1ccc(CCN2CC(C(=O)N(C)Cc3c(C)n[nH]c3C)CCC2=O)cc1 (stereo not given)
  RecA splice inh = 3.4
57. Cn1cc(CCC(=O)NC2CC(C)(C)Cc3c2cnn3-c2ccc(F)cc2)cn1 (stereo not given)
  RecA splice inh = -3.3
58. CCOc1ccccc1-n1ccn(CC(=O)Nc2ccc(Br)cc2F)c(=O)c1=O
  RecA splice inh = 2.0
59. COc1cc(SC)ccc1C(=O)Nc1ccc(OCC(=O)N2CCOCC2)cc1
  RecA splice inh = 2.6
60. Cc1cccc(N(C(=O)c2ccco2)C(C(=O)NC2CCCC2)c2ccco2)c1C (stereo not given)
  RecA splice inh = 0.8

61. CCOc1ccc(NC(=O)/C(C#N)=C/c2cn(CC(=O)O)c3ccccc23)cc1
  RecA splice inh = 7.6
62. Cc1cc(C)n(-c2ccc(NC(=O)C3CCCCN3Cc3cccc4c3OCO4)cc2)n1 (stereo not given)
  RecA splice inh = 3.6
63. O=C(COc1ccc(Cl)cc1Cl)Nc1cccc(-c2ccc(N3CCOCC3)nn2)c1
  RecA splice inh = 2.0
64. COCCCNC(=O)Cc1c(C)c2c(cc(C)c3c(C)c(C)oc32)oc1=O
  RecA splice inh = -0.2
65. O=C(O)c1ccccc1Nc1ccc2nonc2c1[N+](=O)[O-]
  RecA splice inh = 2.2
66. CC(C)NC(=O)c1ccccc1NS(=O)(=O)c1ccc(Br)s1
  RecA splice inh = 0.4
67. CCCCc1nc2cc(C(=O)N(C)C(C)c3ccccn3)ccc2o1 (stereo not given)
  RecA splice inh = -4.1
68. OCCNc1ncnc2c1nnn2Cc1ccccc1
  RecA splice inh = -0.3
69. COc1ccc(CCCNC(=O)C2CCC(=O)N(Cc3ccc(Cl)cc3)C2)cc1 (stereo not given)
  RecA splice inh = 1.6
70. FC(F)Sc1ccc(NC(=S)N2CCN(c3ccccn3)CC2)cc1
  RecA splice inh = 4.5
71. Cc1ccc(OCC(=O)NCCCNC(=O)COc2ccc(C)cc2)cc1
  RecA splice inh = -4.2
72. Cn1ncc(Br)c1C(=O)NC1CCCCCCC1
  RecA splice inh = -1.4
73. COCc1nnc(NS(=O)(=O)c2ccc(Cl)cc2)s1
  RecA splice inh = -2.4
74. O=S(=O)(c1ccc(Cl)cc1)N1CCC2(CC1)OCCN2S(=O)(=O)c1cccs1
  RecA splice inh = 12
75. Cc1ccc(S(=O)(=O)N(CC(=O)Nc2cccc(C)c2C)C(=O)N2CCN(C)CC2)cc1
  RecA splice inh = 4.9

76. Cc1cccc(N2CCN(CC3CCCCC3)CC2)c1C
  RecA splice inh = 1.7
77. CC(=O)NC(Cc1ccc(F)c(F)c1)C(=O)NC1CCN(S(=O)(=O)c2ccc(C)cc2)CC1 (stereo not given)
  RecA splice inh = 1.3
78. Cc1ccc(C)c(C(=O)COC(=O)CCN2C(=O)C3C4CCC(C4)C3C2=O)c1 (stereo not given)
  RecA splice inh = -0.7
79. CCSc1nc2sc3c(c2c(=O)n1-c1ccc(C)cc1)CCN(C)C3
  RecA splice inh = -0.5
80. CCC(C(=O)NC1CCCC1)N(C(=O)Cn1nnc(-c2ccc(C)o2)n1)c1ccc(F)cc1 (stereo not given)
  RecA splice inh = -0.1
81. O=C(Nc1cccnc1Cl)c1cccc(S(=O)(=O)N2CCOCC2)c1
  RecA splice inh = -2.2
82. CC(=O)Nc1ccc(S(=O)(=O)N2CCC(NC(=O)C(Cc3ccccc3F)NC(C)=O)CC2)cc1 (stereo not given)
  RecA splice inh = -2.0
83. COc1cc2c(cc1OC)-c1cc(Nc3cccc(F)c3)nc(=O)n1CC2
  RecA splice inh = 0.3
84. COc1cc(OC)cc(-c2nnc(NC(=O)CCS(=O)(=O)c3ccc(C)cc3)o2)c1
  RecA splice inh = -3.2
85. COc1ccc(CC(=O)Nc2ccc(/C(C)=N\NC(=O)c3ccc(Br)o3)cc2)cc1
  RecA splice inh = 0.3
86. Cc1cc(C)c(S(=O)(=O)N2CCC3(CC2)OCCN3S(=O)(=O)c2cccs2)c(C)c1
  RecA splice inh = 17
87. O=C(CC12CC3CC(CC(C3)C1)C2)NCc1ccc(F)cc1
  RecA splice inh = 1.9
88. CCCC(C(=O)NC1CCCC1)N(C(=O)c1snc(C(N)=O)c1N)c1ccc(F)cc1 (stereo not given)
  RecA splice inh = -1.2
89. O=C(CSc1ccccn1)N1CCCC(Nc2ccccc2)C1 (stereo not given)
  RecA splice inh = -0.5
90. COc1ccccc1N(CC(=O)NC1CCCCC1)C(=O)Cn1nnc(-c2ccc(C)o2)n1
  RecA splice inh = 0.2

91. CC(=O)c1ccc(C(=O)N2CCCC(CO)(Cc3ccccc3C)C2)s1 (stereo not given)
  RecA splice inh = 0.7
92. O=C(O)c1ccc(Cl)c(NCc2ccncc2)c1
  RecA splice inh = -1.4
93. COc1ccc(-n2c(SC)nc3sc4c(c3c2=O)CCN(C)C4)cc1
  RecA splice inh = -9.2
94. O=C(CSc1nnnn1C1CCCC1)N1CCCCC1
  RecA splice inh = -0.2

High-throughput results deposited in PubChem by Broad Institute.
